Source: PubChem BioAssay (National Center for Advancing Translational Sciences (NCATS))
Menin-MLL FL inh – menin-MLL binding inhibition, fluorescein peptide | Fluorescence polarization, fluorescein-MLL peptide displacement from menin | FP activity change, % at 61.4 µM | 290,000 tested, under 10 active | AID 1766; inconclusive = falling polarisation curve, or a change in total fluorescence; inactive = total fluorescence flat and polarisation flat or rising; no compound was filed as active; the % refers to the polarisation; negative = inhibition;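 also: % of control where 0% means no effect; inhibitors lower the polarisation; unlabelled MLL peptide was the positive control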
TRPML1 inh – human mucolipin-1 channel inhibition; Q9GZU1; AID 624415; 390,000 tested, 0.02% active; TRPML1-inducible cells, Ca2+ dye fluorescence, FDSS; hits give low values; inhibition of EC80 agonist-evoked calcium signal; activity change, negative = inhibition, % (concentration not given with the values); in the data active means activity change below about -50%; inconclusive means about -30% to -50%; inactive means above about -30%;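 also: stimulus is agonist 54-4 at its EC80 concentration; % is scaled to controls: 0 for no effect and ±100 for the full control effect; compound concentration not given in the record; the text of the record puts the active cut at -80%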
Target sequence (Q9GZU1 whole entry, looked up): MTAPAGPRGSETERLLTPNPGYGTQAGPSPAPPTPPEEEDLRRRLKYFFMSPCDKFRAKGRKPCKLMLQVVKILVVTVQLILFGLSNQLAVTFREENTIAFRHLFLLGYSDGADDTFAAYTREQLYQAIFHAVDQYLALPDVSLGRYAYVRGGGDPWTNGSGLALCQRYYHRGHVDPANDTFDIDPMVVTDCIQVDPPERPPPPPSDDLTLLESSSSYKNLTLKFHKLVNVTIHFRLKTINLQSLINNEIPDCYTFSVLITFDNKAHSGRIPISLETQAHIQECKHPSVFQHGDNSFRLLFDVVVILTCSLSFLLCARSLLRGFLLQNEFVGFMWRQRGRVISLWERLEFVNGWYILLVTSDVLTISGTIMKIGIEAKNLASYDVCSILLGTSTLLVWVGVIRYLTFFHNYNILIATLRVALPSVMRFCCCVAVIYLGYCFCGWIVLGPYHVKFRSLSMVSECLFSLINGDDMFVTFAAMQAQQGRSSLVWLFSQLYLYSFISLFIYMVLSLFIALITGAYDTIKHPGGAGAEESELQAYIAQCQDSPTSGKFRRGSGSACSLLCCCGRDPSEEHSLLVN
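Tet-induced TRPML1-DL cells loaded with Ca8 no-wash calcium dye were read kinetically on FDSS. Compound addition was followed by EC80 agonist 54-4 (4 uM final); inhibition was read over 110 s.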
gsp agonist – agonists of gsp mutant (McCune-Albright syndrome) | AID 624287 | gsp mutant cells, cAMP HTRF, 30 min; control for the full effect not named in the record | Potency, µM (highest dose often 76.9 µM), for the others: top-dose activation (cAMP increase), hits mostly activators | 340,000 tested, 0.13% active; active = well fitted activation curve with a large enough effect; inconclusive = small, poorly fitted or top-dose-only effect, or another doubt; inactive = no such curve, though single readings can be large or run the other way; cell line not stated here;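 also: phosphodiesterase inhibitor Ro 20-1724 added with compounds to block cAMP breakdown; potency is read from the fitted curve at half-maximal effect; nearly all actives have a fitted effect of over 60% in size; about a fifth of the inactives were tested at one dose only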
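Cells stably selected in G418 were plated at 2000/well, grown 16-24 hr, then given compounds in DMSO with the PDE inhibitor […] (300 uM solution added) for 30 min at 37C; cAMP was read by HTRF.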
TRPML1 agonist – activates the human TRPML1 channel; Q9GZU1; AID 624414; activation, % (test concentration not listed); 410,000 tested, 0.12% active; TRPML1-expressing cells, Ca2+ dye fluorescence, FDSS; host cell line not named in the record; reference of the full effect not given here; in the data active = activation above about 50%; inconclusive = about 30% to 50%; inactive = below about 30%; also: 0% is about no effect; the text of the record puts the active cut at 80%
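Tet-induced TRPML1-DL cells, 1,500 per well, cultured overnight, were loaded with a no-wash Ca2+ dye for 45–90 min. Calcium fluorescence was recorded on the FDSS for 110 s after compound addition, before the EC80 agonist (4 uM 54-4) was added.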
ClpP mod – qHTS Assay for Activators of ClpP; Potency, µM (titrated, usually from 57.5 µM), for the others: at the top dose activity change, negative = active; 340,000 tested, 1.9% active; purified B. subtilis ClpP, FRET peptide cleavage, 20 min; active = well fitted falling curve with a large enough effect; inconclusive = small, poorly fitted or top-dose-only effect; inactive = no such curve, though single readings can be large or run the other way; also: potency is read from the fitted curve at half-maximal effect; the source files actives as falling curves though it sought activators and does not explain the sign; nearly all actives have a fitted effect of over 65% in size; many hits overshoot -100%
Target sequence (P80244 whole entry, looked up): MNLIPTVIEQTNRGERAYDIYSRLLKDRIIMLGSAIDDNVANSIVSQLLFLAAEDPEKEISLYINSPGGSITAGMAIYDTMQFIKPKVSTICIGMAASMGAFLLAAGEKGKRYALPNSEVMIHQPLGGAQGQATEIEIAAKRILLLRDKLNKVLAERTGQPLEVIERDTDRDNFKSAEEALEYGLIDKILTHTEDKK
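FRET quenching reversal measured ClpP activation: 10 microg/mL B. subtilis ClpP at pH 8 with the FRET-FV decapeptide, read at 430 nm after 320 nm excitation. The 20-min minus 0-min signal was scaled between DMSO/no-enzyme wells and ADEP (5.8 microM final).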
gsp antagonist – gsp mutant antagonism; gsp-mutant cells, cAMP HTRF, 30 min; control for the full effect not named in the record; Potency, µM (doses to about 76.9 µM), without a hit: top-dose activity change, negative = inhibition, hits mostly inhibitors; 340,000 tested, 0.4% active; AID 624288; active = falling curve of any shape with a large fitted effect; inconclusive = falling curve, mostly with a smaller effect; inactive = flat or rising curve; cell line not stated here;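 also: intracellular cAMP measured with PDE inhibitor Ro 20-1724 present during compound exposure; potency is read from the fitted curve at half-maximal effect; % is scaled to controls: 0 for no effect and ±100 for the full control effect; nearly all actives have a fitted effect of over 65% in size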
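G418-selected cells were plated in DMEM/10% FBS for 16-24 h at 37C, then treated with compounds plus the PDE inhibitor […] (300 uM solution added) for 30 min at 37C. Intracellular cAMP was measured by HTRF after 30 min lysis at room temperature.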
The depositor's hits bear a star; ? = inconclusive; · = no result given; & = joins results of further samples; [ ] = remark or other dose.

Start of the listing, in advance (5 entries):
SMILES	Menin-MLL FL inh	TRPML1 inh	gsp agonist	TRPML1 agonist	ClpP mod	gsp antagonist
COc1ccc(-c2nc3n(n2)C(c2ccccc2Cl)C(C(N)=O)=C(C)N3)cc1 (centres undefined)	-0.3	0	-80%[inhibitor]	1.5	-1.5%	-1%
COc1cccc2sc(N3CCN(C(=O)c4ccc([N+](=O)[O-])o4)CC3)nc12	·	-6	-3%[15.4 µM]	0.3	-2.1%	6%
O=C(N/N=C1/SCC(=O)N1Cc1ccco1)c1ccccc1F	-7.7	4	-6%[15.4 µM]	0.0	·	·
CCC(=O)N(Cc1ccc(S(N)(=O)=O)cc1)C1CC(=O)N(c2ccc(OC)cc2)C1=O (centres undefined)	-0.7	4	21%	0.6	-2.9%	6%[15.4 µM]
COc1ccc(NC(=O)c2[nH]c(C)c(C(C)=O)c2C)cc1S(=O)(=O)N1CCOCC1	7.7	-5	28%[15.4 µM]	0.6	-0.6%	?

Main list, previewed entries included:
SMILES	Menin-MLL FL inh	TRPML1 inh	gsp agonist	TRPML1 agonist	ClpP mod	gsp antagonist
COc1ccc(-c2nc3n(n2)C(c2ccccc2Cl)C(C(N)=O)=C(C)N3)cc1 (centres undefined)	-0.3	0	-80%[inhibitor]	1.5	-1.5%	-1%
COc1cccc2sc(N3CCN(C(=O)c4ccc([N+](=O)[O-])o4)CC3)nc12	·	-6	-3%[15.4 µM]	0.3	-2.1%	6%
O=C(N/N=C1/SCC(=O)N1Cc1ccco1)c1ccccc1F	-7.7	4	-6%[15.4 µM]	0.0	·	·
CCC(=O)N(Cc1ccc(S(N)(=O)=O)cc1)C1CC(=O)N(c2ccc(OC)cc2)C1=O (centres undefined)	-0.7	4	21%	0.6	-2.9%	6%[15.4 µM]
COc1ccc(NC(=O)c2[nH]c(C)c(C(C)=O)c2C)cc1S(=O)(=O)N1CCOCC1	7.7	-5	28%[15.4 µM]	0.6	-0.6%	?
C=C(C(=O)c1ccccc1)C(C)CC(=O)c1ccccc1 (centres undefined)	4.4	19	-15%	4.6	-9.5%	-5%
COc1ccccc1N1CCN(c2ccc(=O)n(CC(=O)Nc3ccc(F)c(F)c3)n2)CC1	·	-4	·	0.4	-17%	·
CCOC(=O)C1=C(C)c2ccccc2N(C(=O)OC)C1(C)C(=O)OCC (centres undefined)	-1.5[94.6 µM]	-10	·	-0.8	-1.5%	-10%
C#CCN1C=C(C(=O)OCC)C(C)NS1(=O)=O (centres undefined)	·	-5	·	-0.6	-0.3%	7%
Cc1cc(NC(=O)CSc2ccccn2)no1	-0.1	-1	-38%[inhibitor]	1.1	-0.3%	-5%
COc1ccc(CCNC(=O)c2ccc(Cl)c(S(=O)(=O)N3CCCCCC3)c2)cc1	·	7	0%	-0.1	0.1%	?
Cc1ccc(C)c(N2CCN(C(=O)Cn3c(=O)[nH]c4ccsc4c3=O)CC2)c1	4.2	3	-23%	0.7	-4.5%	-19%
CCC(C)Oc1ccc(/C=C/c2[nH]c(=O)[nH]c(=O)c2[N+](=O)[O-])cc1OC (centres undefined)	-1.2	-10	-8%	0.9	·	-17%
NC(=O)c1ccsc1NC(=O)COC(=O)c1cccnc1Cl	·	25	6%[15.4 µM]	-0.2	1.1%	15%
Cc1cc(C)cc(C(=O)Nc2c(C(=O)Nc3ccccc3F)oc3ccccc23)c1	·	-14	·	0.0	13µM*	·
Cc1cccc(C=Nc2ccc3c4c(cccc24)CC3)c1O	?	-21	-28%	1.2	16µM*	-11%
CCc1nc(SCC(=O)Nc2nccs2)c2oc3ccccc3c2n1	0.7	-7	6%	-0.5	-0.9%	8%
O=C(CSc1ccccc1)OCC(=O)N1CCN(C(=O)c2ccco2)CC1	·	14	-21%	-0.1	-3.2%	3%
O=C(NCc1cccc(Cl)c1)c1ccc2nc(N3CCCCC3)sc2c1	·	-9	·	1.3	-15%	·
Cc1ccc(S(=O)(=O)NCCC(=O)N2CCCCCCC2)cc1	·	9	-54%[inhibitor]	-0.7	-1.6%	-7%
Cc1ccc(C(=O)NCCc2nnc3ccc(SCC(=O)Nc4ccc(C)cc4C)nn23)cc1	1.5	-12	?	0.2	-2.6%	-14%
CC(=O)Nc1ccc(C(=O)OCC(=O)N2CCN(C(=O)c3ccco3)CC2)cc1	·	-12	1%	-0.7	0.1%	14%
CCOc1ccc(-c2nnc(SCc3nc4ccccc4[nH]3)n2N)cc1	-0.7	4	4%	1.4	-0.9%	5%
COCCOC(=O)c1c(C)oc2ccc(O)c(CN3CCC(C)CC3)c12 (tested in a mixture with another compound)	·	-10	7%	-0.6	·	-3%
CC(OC(=O)c1ccc2c(=O)n3c(nc2c1)CCC3)C(=O)NC1CCCCC1C (centres undefined)	-1.0	2	-7%	-0.2	-14%	29%

Following part:
SMILES	Menin-MLL FL inh	TRPML1 inh	gsp agonist	TRPML1 agonist	ClpP mod	gsp antagonist
Brc1ccc(-c2nnc3n2-c2ccccc2CC3)cc1	2.8	24	13%	2.8	0.4%	-7%
COc1ccc2sc(NC(=O)CC(C)C)nc2c1	3.5	7	-17%	0.1	1.3%	-18%
Cc1ccc(C(=O)/C=C/c2cc(Br)cc(Br)c2O)o1	?	-27	?	5.8	-1.3%	-19%
COc1cc(OC)nc(NC(=O)NS(=O)(=O)c2ccc(OC(F)(F)F)cc2)n1	3.9	-1	?	-0.5	-1.0%	9%
C/C(=N\NC(=O)CCCNc1ccccc1)c1ccncc1	-2.3	-3	-2%[15.4 µM]	-0.2	·	4%
Cc1cccc(C)c1OCc1cc(C(=O)NC2CCC2)no1	11	-1	9%	2.5	4.2%	11%
CCOc1ccc(N(CC(=O)NCc2ccc(C)cc2)S(=O)(=O)c2c(C)[nH]c(=O)[nH]c2=O)cc1	·	10&5	16%	-1.4&0.0	-1.7%&-0.1%	-12%
COC(=O)C1CCN(C(=O)/C(C)=C\c2ccccc2)CC1	-2.0	22	8%[15.4 µM]	-1.3	-0.5%	13%
Cc1ccc2cn[nH]c2c1[N+](=O)[O-]	-0.1	2	-37%[inhibitor]	-0.2	·	?
Cc1cccc(N2CCN(C(=O)Cn3cnc4c3c(=O)n(C)c(=O)n4C)CC2)c1C	4.1	2	13%	0.5	-1.8%	-1%
Cc1ccc(NC(=O)c2cc(S(=O)(=O)N3CCCC3)cn2C)cc1C	1.2	6	22%	1.4	8.6%	-19%
Cc1ccc(NS(=O)(=O)c2ccc(C)c(C(=O)Nc3ccc(S(=O)(=O)Nc4onc(C)c4C)cc3)c2)cc1	·	-1	4%	-0.1	-13%	9%
COc1ccc(CCN2CCC(CN3C(=S)NC[C@@H]3CC(C)C)CC2)cc1OC	·	-11	·	-0.4	-0.7%	6%
Cc1cc(C)cc(N=C2NC(=O)CS2)c1	-5.7	-2	6%[15.4 µM]	-0.5	?	2%
CC(C)(C)NC(=O)C(c1cccs1)N(C(=O)c1csnn1)c1cccc(F)c1 (centres undefined)	0.1	10	-20%	4.6	0.1%	12%
O=C(COC(=O)CNS(=O)(=O)c1c(Cl)cccc1Cl)Nc1ccccc1Sc1ccccc1	4.1	6	36%[15.4 µM]	-0.7	-0.9%	-21%
CSc1ncnc2c1cnn2-c1ccc(C)cc1C	1.5	18	13%[15.4 µM]	-0.2	-1.5%	-2%
COc1ccc(N(CC(=O)Nc2cc(C)ccc2C)S(=O)(=O)c2c(C)nn(C)c2C)cc1	4.9	-9	-15%	0.4	-4.7%	-17%
CCN(CC)C(=O)c1[nH]cnc1C(=O)N[C@@H](CC(C)C)C(=O)OC(C)(C)C	-1.1	3	·	-0.6	-1.2%	7%
O=C(NN=C1CCCC1)c1n[nH]c2c1CCCC2	0.2	-6	27%	1.1	-0.7%	11%
CC(C)[C@H]1COC(NC2=N[C@@H](C(C)C)CO2)=N1	-4.0	-15	·	-0.3	-0.1%	7%
CC(=O)Nc1cccc(C)c1	·	-7	·	0.1	1.5%	3%
O=C(Nc1c2c(nn1-c1cccc(Cl)c1)CS(=O)(=O)C2)c1ccc2c(c1)OCO2	0.2	3	-1%	-0.2	-3.8%	-9%
Cc1ccccc1S(=O)(=O)Cc1ccc(C(=O)NCCCN2CCC(C)CC2)o1	0.8	8	23%	-0.1	0.0%	9%
Cc1cc(OCC(=O)NCC2(N(C)C)CCCCC2)cc(C)c1Cl	·	-8	·	-0.5	2.4%	·

Other records:
SMILES	Menin-MLL FL inh	TRPML1 inh	gsp agonist	TRPML1 agonist	ClpP mod	gsp antagonist
Cc1cccc(OCC(=O)Nc2ccc3nc(Nc4cccc(C(F)(F)F)c4)cc(C)c3c2)c1	·	-11	·	-0.2	4.0%	·
Cc1nn(C)cc1CN1CCCC(C(=O)c2ccc(-c3ccccc3)cc2)C1 (centres undefined)	-1.9	0	-8%[15.4 µM]	0.5	·	-7%
CCOC(=O)C1(CCc2ccccc2)CCN(Cc2ccc(OC)cc2)CC1	-4.1	7	26%	-0.5	·	3%
O=S(=O)(c1ccccc1)c1cnc(-c2cccnc2)nc1-c1ccccc1	1.0	8	12%	-1.0	-1.1%	-3%
CCn1c(=O)n(-c2ccc3c(c2)OCO3)c2nc(-c3ccc(C(C)C)cc3)nc(C(N)=O)c21	·	55	·	-0.6	-28%	·
CC(=O)N(Cc1cccnc1)c1nc2c(F)cc(F)cc2s1	·	-3	·	0.8	-1.2%	·
O=S1(=O)N=C2CCCCCN2C(c2ccccc2)N1 (centres undefined)	1.3	6	?	0.3	0.7%	9%
O=c1nc2n(c3ccc(Br)cc13)CCS2	1.9	7	?	0.6	-1.4%	-8%
COc1ccccc1-n1cc(CN2CCN(C3CCCC3)C(CCO)C2)cn1 (centres undefined)	-1.2	5	-14%	0.3	-4.0%	7%
CCn1c(/C=C/c2c(C)n(CC)c3ccccc23)nc2ccccc2c1=O	?	5	?	-0.7	0.3%	7%
O=C(CSc1nccc(-c2cccs2)n1)Nc1ccc(Cl)cc1	8.2	1	8%	-0.3	-5.9%	-13%
CC(=O)c1ccc(NC(=O)C(C)N(C)CC(=O)Nc2cccc(F)c2)cc1 (centres undefined)	-0.1	-2	3%[15.4 µM]	-0.7	-2.0%	3%
O=C(C1CCCCC1)N1C[C@@H](O)[C@H](n2cc(-c3ccc(F)cc3)nn2)C[C@@H]1c1ccc(Cl)cc1	·	18	19%	2.2	0.0%	·
OCC1(Cc2ccc(F)cc2)CCCN(CCc2ccccc2)C1 (centres undefined)	0.5	3	-86%[inhibitor]	-0.3	·	12%
Cc1ccc(N(C)S(=O)(=O)c2ccc(-c3coc(C)n3)cc2)cc1	·	17	·	0.7	3.9%	·

Not a hit list. Share with any hit: about 2.1%.
